Ran FRET: RanGTP/importin-beta interaction disruptors – biochemical, CFP-Ran/YFP-importin-beta FRET, RCC1, cell-free, primary screen (AID 434961) | CFP-Ran/YFP-importin-beta FRET, cell-free; stronger effect = higher value | inhibition, % | 7,700 tested, 0.2% active;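 active = more than half of the replicate wells above 15% inhibition; inconclusive = exactly half above it; inactive = fewer than half above it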;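 also: 0% = DMSO wells and 100% inhibition = RanGDP control wells on each plate; stock of unstated strength diluted about 400-fold; mean of two wells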
The depositor's hits bear a star; ? = inconclusive. An excerpt; the hit share may differ from the screen's.

# | Compound | Ran FRET
1 | C[C@H]1CN([C@@H](C)CO)C(=O)c2cccc(NC(=O)Nc3cccc4ccccc34)c2O[C@@H]1CN(C)C(=O)Nc1ccc(F)cc1 | -2.2
2 | C[C@H]1CN([C@@H](C)CO)C(=O)Cc2cc(NC(=O)Nc3ccc(F)cc3)ccc2O[C@H]1CN(C)CC1CC1 | -1.5
3 | C[C@H]1CN([C@@H](C)CO)C(=O)Cc2cc(NS(=O)(=O)c3ccc(Cl)cc3)ccc2O[C@@H]1CN(C)C(=O)Nc1ccc(F)cc1 | -0.6
4 | C[C@@H]1CN([C@H](C)CO)C(=O)c2cc(NC(=O)C3CCCCC3)ccc2O[C@@H](C)CCCCO[C@@H]1CN(C)C(=O)Nc1ccccc1 | -2.6
5 | C[C@H](CO)N1C[C@H](C)[C@H](CN(C)S(=O)(=O)c2ccc(Oc3ccccc3)nc2)OCc2cn(nn2)CCCC1=O | 3.4
6 | C[C@H](CO)N1C[C@H](C)[C@@H](CN(C)C)Oc2ccc(NC(=O)C3CC3)cc2C1=O | -0.9
7 | C[C@H](CO)N1C[C@H](C)[C@@H](CN(C)C(=O)C2CCCCC2)OCCCC[C@H](C)Oc2ccc(NS(=O)(=O)c3ccccc3)cc2C1=O | -2.2
8 | CNC[C@H]1Oc2ccc(NC(=O)Nc3ccc(OC)cc3)cc2C(=O)N([C@H](C)CO)C[C@H]1C | -1.9
9 | C[C@H](CO)N1C[C@H](C)[C@H](CN(C)C(=O)Nc2ccc(F)cc2)OCCCC[C@H](C)Oc2ccc(NC(=O)c3ccncc3)cc2C1=O | 0.6
10 | Cc1noc(C)c1NC(=O)N(C)C[C@@H]1OCCCC[C@@H](C)Oc2ccc(NC(=O)CCC(F)(F)F)cc2C(=O)N([C@H](C)CO)C[C@@H]1C | -6.0
11 | COc1ccc(CN(C)C[C@@H]2Oc3c(NC(=O)Nc4ccc5c(c4)OCO5)cccc3C(=O)N([C@@H](C)CO)C[C@H]2C)cc1 | 0.0
12 | COc1ccc(S(=O)(=O)Nc2ccc3c(c2)CC(=O)N([C@H](C)CO)C[C@@H](C)[C@@H](CN(C)C)O3)cc1 | -1.2
13 | C[C@@H]1CN([C@H](C)CO)C(=O)c2cc(NS(=O)(=O)c3ccc(Cl)cc3)ccc2O[C@@H](C)CCCCO[C@@H]1CN(C)C | -0.3
14 | C[C@H]1CN([C@@H](C)CO)C(=O)c2cccc(NS(C)(=O)=O)c2O[C@H]1CN(C)Cc1ccc(C(F)(F)F)cc1 | 4.9
15 | C[C@@H]1CN([C@@H](C)CO)C(=O)c2cc(NS(=O)(=O)c3ccccc3)ccc2O[C@@H](C)CCCCO[C@@H]1CN(C)C(=O)Nc1ccc(F)cc1 | 4.6

Brought forward from above: two entries, then new ones.
# | Compound | Ran FRET
14 | C[C@H]1CN([C@@H](C)CO)C(=O)c2cccc(NS(C)(=O)=O)c2O[C@H]1CN(C)Cc1ccc(C(F)(F)F)cc1 | 4.9
15 | C[C@@H]1CN([C@@H](C)CO)C(=O)c2cc(NS(=O)(=O)c3ccccc3)ccc2O[C@@H](C)CCCCO[C@@H]1CN(C)C(=O)Nc1ccc(F)cc1 | 4.6
16 | C[C@H]1CN([C@@H](C)CO)C(=O)c2cccc(NC(=O)Nc3ccccc3)c2O[C@@H]1CN(C)C(=O)NC1CCCCC1 | -1.9
17 | C[C@@H]1CCCCO[C@H](CN(C)C)[C@@H](C)CN([C@H](C)CO)C(=O)c2cc(NC(=O)c3ccccc3)ccc2O1 | -0.7
18 | CNC[C@@H]1Oc2ccc(NC(=O)Nc3ccc4c(c3)OCO4)cc2CC(=O)N([C@H](C)CO)C[C@H]1C | 2.3
19 | C[C@@H]1CN([C@@H](C)CO)C(=O)c2cc(N(C)C)ccc2O[C@@H](C)CCCCO[C@H]1CN(C)C(=O)c1ccncc1 | ?
20 | C[C@@H]1CN([C@H](C)CO)C(=O)c2cccc(NC(=O)c3ccncc3)c2O[C@@H]1CN(C)C(=O)Nc1cccc2ccccc12 | 2.0
21 | C[C@@H]1CN([C@@H](C)CO)C(=O)c2cccc(NC(=O)c3cnccn3)c2O[C@@H]1CN(C)C(=O)NC1CCCCC1 | 3.6
22 | C[C@@H]1CN([C@H](C)CO)C(=O)Cc2cc(NC(=O)Cc3cn(C)c4ccccc34)ccc2O[C@@H]1CN(C)CC1CC1 | -0.1
23 | C[C@H]1CN([C@@H](C)CO)C(=O)Cc2cc(NC(=O)Cc3ccccc3)ccc2O[C@H]1CN(C)Cc1ccncc1 | 0.7
24 | Cc1noc(C)c1NC(=O)Nc1ccc2c(c1)CC(=O)N([C@@H](C)CO)C[C@@H](C)[C@@H](CN(C)Cc1ccncc1)O2 | ?
25 | C[C@@H]1CN([C@H](C)CO)C(=O)Cc2cc(NS(=O)(=O)c3ccc(Cl)cc3)ccc2O[C@@H]1CN(C)CC1CCCCC1 | -2.9
26 | C[C@H]1CN([C@@H](C)CO)C(=O)c2cccc(NC(=O)c3nc4ccccc4s3)c2O[C@H]1CN(C)CC1CC1 | 3.9
27 | CC(C)NC(=O)N(C)C[C@H]1Oc2c(NC(=O)C3CCOCC3)cccc2C(=O)N([C@H](C)CO)C[C@H]1C | 1.2
28 | C[C@@H]1CN([C@@H](C)CO)C(=O)c2cc(NS(=O)(=O)c3ccc(Cl)cc3)ccc2O[C@@H]1CN(C)C(=O)NC1CCCCC1 | -0.6
29 | C[C@@H]1CCCCO[C@@H](CN(C)Cc2ccccc2)[C@H](C)CN([C@@H](C)CO)C(=O)c2cc(NC(=O)CCC(F)(F)F)ccc2O1 | 0.9
30 | CC(C)NC(=O)Nc1ccc2c(c1)C(=O)N([C@@H](C)CO)C[C@@H](C)[C@H](CN(C)Cc1ccccc1)OCCCC[C@@H](C)O2 | ?

The closing four compounds of the part before come first, to join the parts:
# | Compound | Ran FRET
27 | CC(C)NC(=O)N(C)C[C@H]1Oc2c(NC(=O)C3CCOCC3)cccc2C(=O)N([C@H](C)CO)C[C@H]1C | 1.2
28 | C[C@@H]1CN([C@@H](C)CO)C(=O)c2cc(NS(=O)(=O)c3ccc(Cl)cc3)ccc2O[C@@H]1CN(C)C(=O)NC1CCCCC1 | -0.6
29 | C[C@@H]1CCCCO[C@@H](CN(C)Cc2ccccc2)[C@H](C)CN([C@@H](C)CO)C(=O)c2cc(NC(=O)CCC(F)(F)F)ccc2O1 | 0.9
30 | CC(C)NC(=O)Nc1ccc2c(c1)C(=O)N([C@@H](C)CO)C[C@@H](C)[C@H](CN(C)Cc1ccccc1)OCCCC[C@@H](C)O2 | ?
31 | C[C@@H]1CN([C@@H](C)CO)C(=O)c2cc(NC(=O)c3ccncc3)ccc2O[C@@H](C)CCCCO[C@@H]1CN(C)C(=O)C1CCCCC1 | 1.9
32 | Cc1ccc(S(=O)(=O)Nc2ccc3c(c2)CC(=O)N([C@@H](C)CO)C[C@H](C)[C@@H](CN(C)C(=O)Nc2c(C)noc2C)O3)cc1 | -6.6
33 | CC(C)NC(=O)N(C)C[C@@H]1OCCCC[C@@H](C)Oc2ccc(NC(=O)CCC(F)(F)F)cc2C(=O)N([C@@H](C)CO)C[C@H]1C | -2.6
34 | COc1ccc(NC(=O)Nc2ccc3c(c2)C(=O)N([C@@H](C)CO)C[C@@H](C)[C@H](CN(C)Cc2ccc(C(=O)O)cc2)O3)cc1 | 0.1
35 | C[C@@H]1CCCCO[C@@H](CN(C)C(=O)Nc2ccccc2)[C@@H](C)CN([C@@H](C)CO)C(=O)c2cc(NC(=O)c3ccccc3)ccc2O1 | 1.7
36 | C[C@@H]1CN([C@@H](C)CO)C(=O)c2cc(NC(=O)CCC(F)(F)F)ccc2O[C@@H]1CN(C)C | 6.0
37 | C[C@H]1CN([C@@H](C)CO)C(=O)c2cc(NS(=O)(=O)c3cccs3)ccc2O[C@@H]1CN(C)C(=O)Nc1ccc2c(c1)OCO2 | 0.9
38 | C[C@@H]1CN([C@H](C)CO)C(=O)c2cccc(NC(=O)C3CCOCC3)c2O[C@H]1CN(C)C(=O)Nc1ccc(C(F)(F)F)cc1 | 8.0
39 | C[C@H](CO)N1C[C@H](C)[C@H](CN(C)C(=O)Nc2ccccc2)Oc2c(NC(=O)NC3CCCCC3)cccc2C1=O | 0.4
40 | C[C@H]1CN([C@@H](C)CO)C(=O)c2cccc(NC(=O)Nc3cccc4ccccc34)c2O[C@@H]1CN(C)C(=O)Nc1cccc2ccccc12 | 0.2
41 | CNC[C@@H]1Oc2ccc(NC(=O)Cc3cn(C)c4ccccc34)cc2CC(=O)N([C@H](C)CO)C[C@@H]1C | -0.3
42 | CNC[C@H]1Oc2ccc(N(C)C)cc2CC(=O)N([C@H](C)CO)C[C@H]1C | 2.4
43 | Cc1cc(C(=O)Nc2cccc3c2O[C@@H](CN(C)C(=O)NC2CCCCC2)[C@@H](C)CN([C@@H](C)CO)C3=O)n(C)n1 | -3.7
44 | C[C@H](CO)N1C[C@H](C)[C@H](CN(C)Cc2ccncc2)Oc2ccc(NC(=O)NC3CCCCC3)cc2C1=O | -7.4
45 | C[C@@H]1CN([C@H](C)CO)C(=O)c2cc(NS(C)(=O)=O)ccc2O[C@@H](C)CCCCO[C@@H]1CN(C)S(=O)(=O)c1cn(C)cn1 | -1.8
46 | C[C@@H]1CN([C@@H](C)CO)C(=O)Cc2cc(NS(=O)(=O)c3ccc(Cl)cc3)ccc2O[C@@H]1CN(C)CC1CCCCC1 | 4.5
47 | C[C@@H]1CN([C@H](C)CO)C(=O)c2cccc(NC(=O)Nc3ccc(F)cc3)c2O[C@@H]1CN(C)Cc1ccc(C(F)(F)F)cc1 | 0.3
48 | CNC[C@H]1Oc2c(NC(=O)c3ccc(-c4nccs4)cc3)cccc2C(=O)N([C@@H](C)CO)C[C@H]1C | 3.5
49 | CNC[C@@H]1Oc2ncc(-c3ccc(F)cc3)cc2C(=O)N([C@H](C)CO)C[C@@H]1C | 1.2
50 | Cc1ccc(S(=O)(=O)Nc2ccc3c(c2)CC(=O)N([C@@H](C)CO)C[C@@H](C)[C@@H](CN(C)Cc2ccncc2)O3)cc1 | -3.6
51 | C[C@H](CO)N1C[C@H](C)[C@H](CN(C)CC2CC2)Oc2c(NC(=O)C3CCOCC3)cccc2C1=O | 0.7
52 | Cc1noc(C)c1NC(=O)Nc1ccc2c(c1)CC(=O)N([C@H](C)CO)C[C@H](C)[C@@H](CN(C)S(=O)(=O)c1ccccc1)O2 | -1.0
53 | C[C@H](CO)N1C[C@H](C)[C@@H](CN(C)C(=O)Nc2ccc(C(F)(F)F)cc2)Oc2c(NC(=O)NC3CCCCC3)cccc2C1=O | -1.9
54 | Cc1cc(C(=O)Nc2cccc3c2O[C@H](CN(C)Cc2ccc4c(c2)OCO4)[C@@H](C)CN([C@H](C)CO)C3=O)n(C)n1 | -2.3
55 | COc1ccc(NC(=O)Nc2ccc3c(c2)CC(=O)N([C@H](C)CO)C[C@@H](C)[C@@H](CN(C)S(=O)(=O)c2ccc(Cl)cc2)O3)cc1 | 2.2
56 | C[C@@H]1CCCCO[C@@H](CN(C)C(=O)CCC(F)(F)F)[C@H](C)CN([C@H](C)CO)C(=O)c2cc(NS(C)(=O)=O)ccc2O1 | -10
57 | C[C@H]1CN([C@@H](C)CO)C(=O)c2cccc(NC(=O)c3cnccn3)c2O[C@@H]1CN(C)C(=O)NC1CCCCC1 | -4.2
58 | C[C@@H]1CN([C@H](C)CO)C(=O)c2cc(NC(=O)NC3CCCCC3)ccc2O[C@H]1CN(C)S(=O)(=O)c1cn(C)cn1 | 3.0
59 | C[C@H]1CN([C@@H](C)CO)C(=O)Cc2cc(N(C)C)ccc2O[C@H]1CN(C)Cc1ccncc1 | -1.0
60 | CNC[C@H]1Oc2ccc(NC(=O)NC(C)C)cc2CC(=O)N([C@@H](C)CO)C[C@@H]1C | -0.7
61 | C[C@@H]1CN([C@H](C)CO)C(=O)c2cc(NC(=O)Nc3ccc4c(c3)OCO4)ccc2O[C@@H]1CN(C)S(=O)(=O)c1ccc(F)cc1 | 3.8
62 | C[C@@H]1CN([C@H](C)CO)C(=O)Cc2cc(NC(=O)Cc3ccccc3)ccc2O[C@@H]1CN(C)Cc1ccc(C(=O)O)cc1 | 5.3
63 | C[C@H]1CN([C@@H](C)CO)C(=O)Cc2cc(NC(=O)Cc3cn(C)c4ccccc34)ccc2O[C@@H]1CN(C)Cc1ccncc1 | 0.6
64 | C[C@@H]1CN([C@H](C)CO)C(=O)c2cccc(NC(=O)c3nc4ccccc4s3)c2O[C@H]1CN(C)C(=O)Nc1cccc2ccccc12 | 1.9
65 | C[C@@H]1CCCCO[C@@H](CN(C)C(=O)CCC(F)(F)F)[C@@H](C)CN([C@@H](C)CO)C(=O)c2cc(NC(=O)Nc3ccc4c(c3)OCO4)ccc2O1 | -1.5
66 | C[C@H]1CN([C@@H](C)CO)C(=O)c2cc(NC(=O)Cn3cnnn3)ccc2O[C@H]1CN(C)S(=O)(=O)c1cccs1 | -5.0
67 | COc1ccc(S(=O)(=O)Nc2ccc3c(c2)CC(=O)N([C@@H](C)CO)C[C@H](C)[C@H](CN(C)S(=O)(=O)c2ccc(OC)cc2)O3)cc1 | 5.5
68 | C[C@@H]1CN([C@@H](C)CO)C(=O)Cc2cc(NC(=O)CCCN(C)C)ccc2O[C@H]1CN(C)C(=O)Nc1ccc(F)cc1 | 3.0
69 | CNC[C@H]1Oc2c(NS(=O)(=O)c3cccs3)cccc2C(=O)N([C@H](C)CO)C[C@@H]1C | 2.1
70 | C[C@@H]1CN([C@H](C)CO)C(=O)c2cccc(NC(=O)C3CCOCC3)c2O[C@@H]1CN(C)C(=O)Nc1ccc2c(c1)OCO2 | -3.7
71 | C[C@H](CO)N1C[C@H](C)[C@H](CN(C)S(=O)(=O)c2cn(C)cn2)Oc2c(NS(=O)(=O)c3cn(C)cn3)cccc2C1=O | -2.9
72 | CNC[C@H]1Oc2ccc(NC(=O)C3CC3)cc2CC(=O)N([C@@H](C)CO)C[C@@H]1C | -1.1
73 | COc1ccc(S(=O)(=O)Nc2ccc3c(c2)C(=O)N([C@H](C)CO)C[C@@H](C)[C@H](CN(C)S(=O)(=O)c2cn(C)cn2)O3)cc1 | 1.0
74 | C[C@@H]1CN([C@H](C)CO)C(=O)c2cc(NC(=O)Cn3cnnn3)ccc2O[C@@H]1CN(C)C(=O)NC1CCCCC1 | -4.0
75 | C[C@@H]1CN([C@H](C)CO)C(=O)c2cccc(NC(=O)Nc3cccc4ccccc34)c2O[C@@H]1CN(C)C(=O)Nc1ccc(F)cc1 | 3.3

Bioassay records deposited in PubChem by Broad Institute.
